GALK inh: qHTS Assay for Inhibitors of Human Galactokinase (GALK): NCGC Sytravon Library Screen | P51570 | recombinant GALK, Kinase-Glo ATP luminescence, 1 h | Potency, µM (doses to about 57.5 µM), for the others: at the top dose activity, negative = inhibition, hits mostly inhibitors | 44,000 tested, under 10 active | AID 1347072, 2019;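 further: plate controls were full GALK reaction for no effect and reaction lacking GALK for full effect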
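5 nM GALK; 35 uM ATP; 100 uM D-galactose; 20 mM HEPES pH 8.0, 5 mM MgCl2, 60 mM NaCl, 1 mM DTT, 0.01% BSA; 1 h RT; Kinase-Glo Plus luminescence.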
p53null 39C tox: qHTS Screen for Compounds that Selectively Target Cancer Cells with p53 Mutations: Cytotoxicity of p53 Null Cells at the Nonpermissive Temperature | AID 904, 2007 | Potency, µM (series often up to 46.1 µM), inactives show at the top dose activity, negative = cell killing, actives largely listed as cytotoxic | 0.97% of 55,000 active | H1299 p53-null (neo) cells, 39C, ATPlite viability, 24 h;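 further: potency means the concentration at half of the fitted maximal effect; 0% = DMSO only and -100% = full killing by 100 µM tamoxifen; nearly all actives have a fitted effect of over 50% in size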
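Concentration-response (up to 46 uM) was run for 24 h at the nonpermissive 39C on H1299-p53A138V or H1299-neo cells. ATP content was measured with ATPlite luminescence. AC50 values were Hill-modeled after normalizing between DMSO and 100 uM tamoxifen killing.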
PTAP-TSG101 blk: qHTS Validation Assay for Inhibitors of HIV-1 Budding by Blocking the Interaction of PTAP/TSG101: Sytravon Library Screen; Potency, µM (series often up to 115 µM), for the others: top-dose activity change, negative = inhibition, most hits filed as inhibitors; 44,000 tested, under 10 active; Tumor susceptibility gene 101 protein (Homo sapiens), Q99816; AID 1347069, 2019; Fluorescence polarization, FITC-PTAP peptide/Tsg101, 20 min; further: potency means the concentration at half of the fitted maximal effect; 0% is about no effect
Target sequence (Q99816 whole entry, looked up): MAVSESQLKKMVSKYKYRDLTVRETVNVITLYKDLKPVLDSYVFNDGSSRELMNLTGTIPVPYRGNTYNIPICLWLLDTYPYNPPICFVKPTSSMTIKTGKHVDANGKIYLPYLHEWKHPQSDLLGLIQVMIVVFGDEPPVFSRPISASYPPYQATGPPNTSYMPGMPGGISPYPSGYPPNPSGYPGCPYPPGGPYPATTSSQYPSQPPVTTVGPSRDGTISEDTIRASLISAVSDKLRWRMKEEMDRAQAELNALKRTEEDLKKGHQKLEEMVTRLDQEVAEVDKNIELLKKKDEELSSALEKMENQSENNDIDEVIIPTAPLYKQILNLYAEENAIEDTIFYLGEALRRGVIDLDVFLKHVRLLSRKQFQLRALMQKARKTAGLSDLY
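Fluorescence polarization: Tsg101 binding domain (10 uM final) in 10 mM HEPES pH 7.5, 0.15 M NaCl, 0.01% Tween 20, 3 mM EDTA, 0.1 mM TCEP; compounds pinned; FITC-PTAP peptide 50 nM final; 20 min, r.t.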
p53null 32C tox: qHTS Screen for Compounds that Selectively Target Cancer Cells with p53 Mutations: Cytotoxicity of p53 Null Cells at the Permissive Temperature; 0.62% of 55,000 active; AID 903, 2007; Potency, µM (highest dose often 46.1 µM), for inactives: at the highest dose activity change, negative = cytotoxicity, hits mostly cytotoxic; H1299-neo p53 null cells, ATP luminescence, 24 h, 32C;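 further: potency means the concentration at half of the fitted maximal effect; 0% = DMSO only and -100% = full killing by 100 µM tamoxifen; nearly all actives have a fitted effect of over 55% in size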
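We seeded p53-null H1299-neo cells, incubated them overnight at 37C, and added compounds across a range up to 46 uM. After 24 hours at 32C, ATP reagent was applied for 20 min at room temperature and luminescence recorded.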
B2AR arrestin ag: qHTS assay of beta-arrestin-biased ligands of beta2-adrenergic receptor: NCGC Sytravon Library Screen | Beta-2 adrenergic receptor (Homo sapiens), P07550 | HTLA Tango cells, beta-arrestin recruitment, luciferase luminescence, 18 h | Potency, µM (doses to about 46.1 µM), for inactives: top-dose activation, actives largely listed as activators | 44,000 tested, under 10 active | AID 1347077, 2019;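 further: potency means the concentration at half of the fitted maximal effect; 0% = DMSO and full agonism = EC100 isoproterenol or metaproterenol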
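Tango cells (recombinant beta2-AR, beta-arrestin, tTA-driven luciferase), 1500/well in DMEM 1% FBS, treated 18 h at 37 °C with compounds up to 46 µM; luciferin mix added, luminescence read after 15 min; %activity curves fitted and curve-classed.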
FH mod: Identification of activators of human fumarate hydratase by quantitative high-throughput screening | FH coupled MDH/diaphorase resazurin fluorescence, 15 min | 0.22% of 54,000 active | AID 1347055, 2019 | Potency, µM (top dose mostly 79.9 µM), for inactives: at the highest dose activity change, negative = inhibition, usual class: inhibitors; further: potency means the concentration at half of the fitted maximal effect; on the % scale 0 is the no-effect control and ±100 the full control effect; the screen sought activators but most active calls are inhibition curves; nearly all actives have a fitted effect of over 45% in size
Target sequence (P07954 whole entry, looked up): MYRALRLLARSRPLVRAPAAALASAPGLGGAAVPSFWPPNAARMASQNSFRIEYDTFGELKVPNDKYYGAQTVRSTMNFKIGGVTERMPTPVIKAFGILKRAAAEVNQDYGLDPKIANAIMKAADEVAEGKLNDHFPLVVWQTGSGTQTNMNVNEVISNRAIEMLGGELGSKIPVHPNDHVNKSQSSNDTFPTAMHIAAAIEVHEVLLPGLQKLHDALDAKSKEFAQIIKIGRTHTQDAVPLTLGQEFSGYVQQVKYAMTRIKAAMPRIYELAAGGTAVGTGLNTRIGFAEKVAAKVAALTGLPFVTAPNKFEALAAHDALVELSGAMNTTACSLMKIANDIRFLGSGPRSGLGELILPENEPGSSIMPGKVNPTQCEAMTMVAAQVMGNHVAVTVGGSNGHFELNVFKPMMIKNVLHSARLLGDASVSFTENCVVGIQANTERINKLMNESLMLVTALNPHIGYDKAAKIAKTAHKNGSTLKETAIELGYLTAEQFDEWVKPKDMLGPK
* hit, by the source's call; ? = inconclusive; / = no result given; [ ] = dose if it differs, or a comment. The call rests on the fitted dose curve; in most records, active means well fitted curve in the direction sought with a large enough effect; inconclusive means small, poorly fitted or top-dose-only effect, or another doubt; inactive means no such curve, though single readings can be large; an effect the other way counts as inactive or inconclusive.

smiles | p53null 32C tox | PTAP-TSG101 blk | GALK inh | FH mod | p53null 39C tox | B2AR arrestin ag
N#C/C(=C\c1ccc(F)cc1)c1nc(-c2ccc(-c3ccccc3)cc2)cs1 | -2% | 6% | 1% | 14% | 32%[activator] | 0%
COc1ccc(OC)c(S(=O)(=O)Nc2ccc3c(c2)n(C)c(=O)n3C)c1 | -15% | -2% | 3% | -6% | -28% | -2%
O=C1[C@@H]2CSC(c3ccc(C(F)(F)F)cc3)N2C(=O)N1c1ccccc1 (stereo partly drawn) | 8% | 1% | -9% | 6% | -6% | 1%
CCC(=O)Nc1ccc(C)cc1-c1nc2ccccc2n(C(C)C(=O)Nc2ccccc2CC)c1=O (stereo not drawn) | 1% | 3% | 3% | -17% | 28% | -1%
C=CCc1ccc(OCc2ccc(C(=O)Nc3ccc(NC(C)=O)cc3)o2)c(OC)c1 | -9% | 1% | 2% | -2% | ? | 1%
CCCn1c2ccccc2c2cnn(CC(=O)N(CCCOC(C)C)Cc3ccco3)c(=O)c21 | -23% | -2% | 1% | -20% | ? | 2%
COCCN1CCc2nc(SCC(=O)Nc3ccc(Br)cc3)[nH]c(=O)c2C1 | -10% | -1% | 3% | -13% | -12% | -1%
CCc1cc2c(cc3c(=O)n(CC(=O)N4CCCCC4)ncn32)s1 | -8% | 0% | 4% | -17% | 8% | 0%
CC(=O)Oc1ccc(C2(c3ccc(OC(C)=O)cc3)Oc3ccccc3NC2=O)cc1 | / | / | / | -7%[53.3 µM] | / | /
CCN(CC)C(=O)c1sc2c(c1C)c(=O)n(-c1ccccc1)c(=O)n2Cc1c(C)cc(C)cc1C | -4% | -2% | 1% | -4% | 7% | -3%
Cc1cc(C)cc(NC(=O)CCN2C(=O)c3ccccc3Sc3ncccc32)c1 | -3% | -12% | 1% | -10% | 9% | -1%
CCN(CC)C(=O)c1sc2c(c1C)c(=O)n(CCc1ccccc1)c(=O)n2Cc1ccc(C)cc1 | 29% | -1% | -8% | ? | -7% | -2%
Nc1c(C(=O)NCc2cccs2)nnn1CC(=O)Nc1cccc(F)c1 | 6% | 0% | 8% | -17% | 17% | 0%
Cc1cc(C)c(NC(=O)CCN2C(=O)c3ccccc3Sc3ncccc32)c(C)c1 | -5% | 8% | -1% | 3% | -7% | ?
Cc1cc(C)cc(-n2ccnc2SCC(=O)Nc2nnc(C)s2)c1 | 11% | -2% | 0% | 5% | 21% | 0%
O=C(Nc1ccc2c(c1)CCCN2C(=O)c1cccs1)c1ccccc1C(F)(F)F | ? | -12% | -5% | -18% | 8% | -1%
Cc1cccc(C)c1NC(=O)CN(Cc1ccc(Br)cc1)S(=O)(=O)c1ccccc1 | -3% | -8% | 0% | -15% | 19% | 1%
O=C(c1cccs1)N1CCCc2cc(NS(=O)(=O)c3ccc(Br)cc3)ccc21 | 53%[activator] | -6% | 0% | ? | 86%[activator] | 0%
CC(=O)c1c(C)oc2c(Br)cc(NS(=O)(=O)c3ccc(Br)cc3)cc12 | 19% | 1% | -2% | -24% | 5% | 1%
Cc1cc(C)cc(N2C(=O)CS(=O)(=O)C23C(=O)N(Cc2ccccc2)c2ccccc23)c1 (stereo not drawn) | 9% | 0% | 1% | -5% | -11% | 0%
Cc1ccccc1C(=O)Nc1ccc2c(c1)CCCN2C(=O)c1cccs1 | ? | -7% | -3% | -2% | 0% | 0%
Cc1ccccc1C(=O)n1nc(-c2ccco2)nc1NCc1cccs1 | -1% | 2% | -10% | 1% | -7% | 0%
CCOC(=O)c1c(NC(=O)c2cc(-c3cccc(Cl)c3)on2)sc(C(C)=O)c1C | -5% | 0% | 3% | 2% | 30% | -2%
CCOC(=O)C1=C[C@@H](OC(CC)CC)[C@H](NC(C)=O)[C@@H](N)C1 | / | / | / | 3%[53.3 µM] | / | /
Cc1ccc(-n2c(=O)cc(N3CCN(c4ccccc4Cl)CC3)[nH]c2=O)cc1 | 3% | -4% | 2% | 3% | 14% | -1%
CCC(Cn1nnc2ccccc2c1=O)NC(=O)Nc1cccc(Cl)c1 (stereo not drawn) | -7% | 0% | ? | -1% | -18% | -2%
Cc1ccccc1Nc1sc(C(=O)c2ccccc2)c(N)c1C(=O)NCc1ccc(Cl)cc1 | 9% | 4% | -2% | -7% | 7% | -2%
O=C(Cn1ncn2c(cc3sccc32)c1=O)NCCc1ccccc1 | -3% | 5% | -4% | 8% | -11% | -2%
COc1ccc(OC)c(NS(=O)(=O)c2ccc(-n3cccn3)cc2)c1 | 4% | -3% | -1% | ? | -5% | 2%
O=C(CN1C(=O)C(c2ccc(F)cc2)=NC12CCCCCC2)Nc1ccc(F)c(Cl)c1 | 13% | -1% | -15% | -34% | ? | -4%
Cc1ccc(Cn2c(C)c(CNCCCc3ccccc3)c(C(=O)O)c2C)cc1 | 1% | -6% | 4% | -20% | -18% | -1%
N#Cc1c(C(F)(F)F)cc(-c2cccs2)nc1SCC(=O)Nc1cccc(Br)c1 | -9% | -24% | 6% | 2% | ? | 0%
Cc1cc(CN)cc(C)c1NC(=O)c1ccc(-c2cc(Cl)ccc2Cl)o1 | / | / | / | 5% | / | /
COc1ccc(CCN2C(=O)c3[nH]nc(-c4ccccc4O)c3C2c2ccc(OC)cc2)cc1 (stereo not drawn) | 18% | -3% | 0% | ? | 54%[activator] | ?
CCOCC(=O)Nc1ccc(-c2cn3c(C)csc3n2)cc1 | ? | 0% | 0% | 0% | ? | 0%
Cc1cccc(Cn2c(COc3ccc(Cl)cc3)nc3ccccc32)c1 | 16% | -3% | 0% | ? | 17% | 1%
CCCCNC(=O)CSc1nc2n[nH]c(C)c2c(=N)n1-c1ccccc1CC | 33%[activator] | -2% | -1% | -10% | -10% | 3%
O=C1c2[nH]nc(-c3ccccc3O)c2C(c2cccc(OCc3ccccc3)c2)N1CCCO (stereo not drawn) | 32%[activator] | 0% | -4% | 6% | 29% | 8%
COc1ccc(OC)c(S(=O)(=O)Nc2cc3c(C(C)=O)c(C)oc3c3ccccc23)c1 | 13% | -3% | 0% | ? | -4% | 0%
CC(=O)Nc1ccccc1-c1nc2ccccc2n(C(C)C(=O)Nc2cccc(C)c2C)c1=O (stereo not drawn) | 1% | 0% | -1% | -7% | 3% | -2%
C[C@@H](NC(=O)C(=O)c1c[nH]c2ccc([N+](=O)[O-])cc12)c1ccccc1 | / | / | / | 1% | / | /
COc1ccccc1-c1cc(NC(=O)COc2ccc(C)c(C)c2)n(-c2ccccc2)n1 | -3% | 0% | -6% | -8% | 5% | 0%
COc1ccc(C2NC(=O)N(C)C3=C2C(=O)N(c2ccc(Br)cc2)C3)cc1 (stereo not drawn) | 13% | 3% | -1% | ? | 7% | -1%
CC1(C)CC(=O)C2=C(C1)NC(=S)NC2c1cccc(O)c1 (stereo not drawn) | / | / | / | 1% | / | /
N#Cc1ccccc1CSc1nnc(-c2ccc(Br)cc2)o1 | 2% | -1% | 2% | -1% | -11% | 1%
CCCc1nc2ccccc2n2c(-c3ccccc3)c3c(=O)n(C)c(=O)n(C)c3c12 | -1% | 0% | -1% | -30% | 10% | 7%
CC1=C(C(=O)Nc2cccnc2)C(c2ccc(Cl)cc2)n2nc(-c3ccccc3)nc2N1 (stereo not drawn) | 14% | -2% | 3% | -4% | 9% | 0%
Cc1cccc(NC(=O)CSc2nc(-c3cccs3)cc(C(F)(F)F)c2C#N)c1C | 0% | 23% | 3% | 3% | -11% | 0%
CCOCCCN(Cc1ccco1)S(=O)(=O)c1cc2c(cc1C)NC(=O)CO2 | -1% | -1% | -6% | -3% | -13% | 1%
O=C(Nc1cc(C(F)(F)F)ccc1Cl)c1cc(-c2ccc3c(c2)OCCO3)on1 | -20% | 1% | 0% | -6% | -16% | -3%
COc1cc(C2NC(=O)N(C)C3=C2C(=O)N(c2ccccc2)C3)ccc1O (stereo not drawn) | 13% | -3% | 7% | -3% | -3% | 1%
CCN1CCN(c2oc(-c3ccc(COc4ccccc4C)o3)nc2C#N)CC1 | 45%[activator] | -7% | -5% | -22% | 78%[activator] | -4%
Cc1c(NC(=O)c2ccc(-c3ccc(F)cc3)o2)cccc1-c1nc2ncccc2o1 | ? | 2% | 2% | -19% | ? | -1%
COc1ccc(-c2nc(C)c(CCNS(=O)(=O)c3cc(C)c(C)cc3C)s2)cc1 | 35%[activator] | -4% | 0% | ? | 18% | 0%
Cc1ccccc1CNCc1c(C(=O)O)c(C)n(Cc2ccc(F)cc2Cl)c1C | -12% | -3% | 7% | -23% | -16% | -2%
Cc1ccc(CNC(=O)c2c(Nc3c(C)cccc3C)sc(C(=O)c3ccccc3)c2N)cc1 | 20% | -4% | -1% | -4% | 9% | -2%
CCOc1ccc2c(c1)c(=O)c(C(=O)c1ccc(CC)cc1)cn2CC(=O)Nc1ccccc1C | -18% | 28% | -11% | -3% | -21% | 1%
COc1ccc(CCNc2nc(-c3ccccc3OC)cc(C(F)(F)F)n2)cc1OC | 25% | -9% | -2% | ? | 38%[activator] | 1%
CC(C)(C)CCN1C[C@@H]2C(CNC(=O)c3cc(Cl)cc(Cl)c3)[C@@H]2C1 (stereo partly drawn) | / | / | / | 2% | / | /
Cc1ccc2c(=O)c(C(=O)c3ccc(Cl)cc3)cn(CC(=O)Nc3ccc4c(c3)OCCO4)c2n1 | -4% | 24% | 0% | -10% | 16% | 0%
CCOc1ccc(Nc2oc(/C=C/c3cccc(OC)c3)nc2C#N)cc1 | 4% | -2% | 2% | -10% | -2% | 5%

Reformatted with values under each structure: part of the list above
Value order: p53null 32C tox, PTAP-TSG101 blk, GALK inh, FH mod, p53null 39C tox, B2AR arrestin ag
- COc1ccc(C2NC(=O)N(C)C3=C2C(=O)N(c2ccc(Br)cc2)C3)cc1 (stereo not drawn)
  13%, 3%, -1%, ?, 7%, -1%
- CC1(C)CC(=O)C2=C(C1)NC(=S)NC2c1cccc(O)c1 (stereo not drawn)
  /, /, /, 1%, /, /
- N#Cc1ccccc1CSc1nnc(-c2ccc(Br)cc2)o1
  2%, -1%, 2%, -1%, -11%, 1%
- CCCc1nc2ccccc2n2c(-c3ccccc3)c3c(=O)n(C)c(=O)n(C)c3c12
  -1%, 0%, -1%, -30%, 10%, 7%
- CC1=C(C(=O)Nc2cccnc2)C(c2ccc(Cl)cc2)n2nc(-c3ccccc3)nc2N1 (stereo not drawn)
  14%, -2%, 3%, -4%, 9%, 0%
- Cc1cccc(NC(=O)CSc2nc(-c3cccs3)cc(C(F)(F)F)c2C#N)c1C
  0%, 23%, 3%, 3%, -11%, 0%

Compound activity: PubChem, National Center for Advancing Translational Sciences (NCATS)

Only part of the results is shown; the hit share may differ from the screen's.
